# Screening data from PubChem BioAssay.
# Beta cell apopt – inhibitors of cytokine-induced beta cell apoptosis, primary screen, luminescence; 300,000 tested, 0.8% active; protection from apoptosis, % (concentration not given with the values); AID 435005, 2010; INS-1E cytokine-induced death, ATP luminescence, 48 h; percent of positive-control rescue, neutral wells zero;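 active = all replicates at 75% or more, or half of them and the mean; inconclusive = half reach 75% but not the mean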;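 note: 0% = cytokine-treated negative control wells and 100% = positive control rescue; higher means more ATP so stronger rescue from cytokine killing; wells of about 40 µL received 100 nL stock; the first replicate is given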
# Vif TR-FRET – inhibitors of Vif binding to APOBEC3G peptide, primary screen, biochemical, TR-FRET, GST-Vif 1-94, biotin-A3G peptide, dose response retest (AID 1117319); Virion infectivity factor (Human immunodeficiency virus type 1 group M subtype B (isolate …; TR-FRET GST-Vif / biotin-A3G peptide binding; higher % means a stronger effect; test concentration not given here; strong numbers were not always called active; inhibition, %, or IC50 in µM where a hit was titrated; 260,000 tested, 0.57% active;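 active = above the screen mean plus three standard deviations and confirmed in dose response; inconclusive = results disagree or hit not tested in dose response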;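 note: Vif residues 1-94 fused to GST binding biotinylated APOBEC3G peptide 110-148; 0% = full assay without inhibitor and 100% = GST in place of GST-Vif; retest series ran down from 100 µM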
# T cruzi inh – inhibitors of intracellular T. cruzi growth, primary screen, luminescence, NIH3T3 host cells. T. cruzi beta-gal in NIH3T3, 90 h. inhibition, % (no concentration beside the values). 300,000 tested, 1.4% active. AID 1885, 2009;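 active = mean inhibition across valid replicates above about 55%, limit read from the data; inconclusive = mean below that limit but half or more replicates reach it; inactive = mean below it, under half of replicates reach it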;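 note: signal also drops with host cell toxicity which is not excluded here; 0% = plate median of DMSO wells and 100% = zero luminescence signal; higher percent means less beta-gal luminescence so fewer parasites; stock transfer was 50 nL into about 50 µL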
# RanGTP-Impb inh – inhibitors of RanGTP-importin-beta interaction, primary screen, biochemical, FRET, CFP-Ran, YFP-importin-beta, homogeneous; Ran GTPase (GTP-bound) - importin-beta complex; inhibition, % (test concentration not listed); 300,000 tested, 1.1% active; cell-free CFP-Ran/YFP-importin-beta FRET ratio;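 active = most replicates above 15%; inconclusive = exactly half above 15%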;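 note: 0% = DMSO wells and 100% = Ran loaded with GDP instead of GTP; wells of about 40 µL received 100 nL stock; the first replicate is given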
# A1 inh – caspase 3/7 activation in MEF A1-2A-BIM cells, primary screen, A1 inhibitor project, cell-based, luminescence, HTS | Caspase-Glo 3/7 luminescence, 3 h; percent of clofoctol response, vehicle zero | caspase activation, % (test concentration not listed) | 330,000 tested, 0.066% active | AID 2462, 2010;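 active = over half of replicate activation scores above 10%, or exactly half above 10 with the replicate mean above 10; inconclusive = replicate mean below 10 yet half the replicates above 10; inactive = over half of replicates below 10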;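 note: wells of about 30 µL received 50 nL stock; many hits fall short of the cut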
# Calb FLC – C. albicans growth inhibition with fluconazole, primary screen, CaCi-2 strain, Alamar Blue fluorescence; C. albicans CaCi-2 (fluconazole-resistant clinical isolate) + fluconazole, 48 h; growth inhibition, % (concentration not given with the values); 300,000 tested, 0.57% active;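 active = most replicates above 75%; inconclusive = exactly half above 75%; inactive = most below 75%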;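 note: all wells also contain fluconazole at 8 µg/ml as a sub-toxic cotreatment; 0% = median of DMSO wells and 100% = median of geldanamycin control wells; wells of about 8 µL received 7.5 nL stock; the first replicate is given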
# MLL AF4-AF9 inh – inhibitors of AF4 peptide binding to AF9, primary screen, biochemical, AlphaScreen, biotin-AF4 peptide, FLAG-AF9, single point; Protein AF-9 (Homo sapiens), P42568; inhibition, % at 10 µM; 350,000 tested, 0.47% active;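 active = every replicate reaching a set inhibition limit, whatever the replicate mean, cut at about 25% in these data; inconclusive = mean inhibition reaches that limit but some replicates miss it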;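 note: 0% = plate neutral control median and 100% = total signal loss; the record names both 10 and 1 µM as test concentration; the first replicate is given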
# Target sequence (P42568 whole entry, looked up): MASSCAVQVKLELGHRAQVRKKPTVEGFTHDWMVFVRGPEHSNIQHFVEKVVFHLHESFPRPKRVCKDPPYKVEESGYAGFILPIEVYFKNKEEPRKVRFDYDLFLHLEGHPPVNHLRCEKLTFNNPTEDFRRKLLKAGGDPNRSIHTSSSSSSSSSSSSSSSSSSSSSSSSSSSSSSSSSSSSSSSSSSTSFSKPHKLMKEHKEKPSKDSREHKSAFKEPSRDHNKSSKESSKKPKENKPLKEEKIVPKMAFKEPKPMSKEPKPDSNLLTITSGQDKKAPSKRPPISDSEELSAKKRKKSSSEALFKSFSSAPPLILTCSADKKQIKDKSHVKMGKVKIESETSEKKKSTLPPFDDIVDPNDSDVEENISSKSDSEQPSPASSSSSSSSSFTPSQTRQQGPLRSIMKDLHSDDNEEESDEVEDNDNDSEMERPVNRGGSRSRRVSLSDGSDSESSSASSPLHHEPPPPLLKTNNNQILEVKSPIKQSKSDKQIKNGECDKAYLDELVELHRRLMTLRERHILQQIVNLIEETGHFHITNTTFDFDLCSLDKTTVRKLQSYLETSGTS
# Ecoli rRNA inh – reduced GFP signal of wild-type E. coli, primary screen, bacterial rRNA inhibitor project, GFP/RFP fluorescence, OD600, single point; GFP signal change (wild-type ribosome), % (test concentration not listed); 350,000 tested, 1.6% active; E. coli WT GFP vs humanized-ribosome RFP mutants, 24 h; stronger effect = lower value; DMSO median 0, no signal -100;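 active = significant combined selectivity score with lowered wild-type GFP, culture density cut under 30%, mutant RFP and density less affected; inactive = any of these conditions unmet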; note: one replicate is shown; some compounds called inactive have numbers as strong as hits
# Ecoli rRNA inh OD600 – second read-out of Ecoli rRNA inh, no call of its own (marks repeat the call); OD600 change, %; measured here: OD600 growth;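 optical density of the mix in the first replicate; 0 = DMSO median and -100 = no signal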
# Ecoli rRNA inh RFP – further read-out of Ecoli rRNA inh, marked with its call; RFP signal change, %; measured here: RFP humanized mutant strains;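 first replicate; 0 = DMSO median and -100 = no signal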
# * hit, by the source's call; ? = inconclusive; nt = not tested or not shown; & = joins results of further samples. Some of the compounds tested. The share of hits here may be higher or lower than overall.
SMILES,Beta cell apopt,Vif TR-FRET,T cruzi inh,RanGTP-Impb inh,A1 inh,Calb FLC,MLL AF4-AF9 inh,Ecoli rRNA inh,Ecoli rRNA inh OD600,Ecoli rRNA inh RFP
Fc1ccc(-c2cc3nc(-c4ccccc4)cc(N4CCN(CCN5CCOCC5)CC4)n3n2)cc1,nt,15%&-9%,55*,22*,nt,7,nt,nt,nt,nt
O=C(Oc1ccccc1O)c1cccc2ccccc12,-4,?,-12,4.0,-0.5,26,-1.3,-12,-13,-1.5
CN(CC(=O)Nc1ccc(F)c(F)c1F)C(=O)C1CCCO1 (centres undefined),3,1%,-5,3.5,0.6,0,-21,0,0,1.3
COc1cccc(C2c3c(oc4ccccc4c3=O)C(=O)N2CCCN(C)C)c1OC (centres undefined),1,0%,-12,2.6,-0.2,4,nt,nt,nt,nt
O=C(CCNS(=O)(=O)c1ccc2c(c1)CCC(=O)N2)NCc1cccnc1,nt,1%,-15,?,0.8,1,nt,nt,nt,nt
COc1ccc(OC)c(CCNC(=O)c2ccc(CS(=O)(=O)c3ccc(Br)cc3)o2)c1,3,-6%,13,4.0,-0.2,1,0.2,-15,-22,-0.7
COc1ccc(OC(=O)c2cc3cc(Cl)ccc3oc2=O)cc1,2,4%,-4,3.7,-0.8,4,6.3,19,5,2.2
Cn1c(Cn2c(=O)sc3ccccc32)nnc1SCC(=O)Nc1ccc2c(c1)OCO2,3,23%,-1,-0.1,0.6,3,-3.0,8,2,5.9
CCN(CC)S(=O)(=O)c1cccc(C(=O)Nc2ccc(C#N)cc2)c1,1,0%,-33,-5.1,0.8,?,nt,nt,nt,nt
Cc1c(C(=O)N2CC(C)OC(C)C2)[nH]c2ccc(Br)cc12 (centres undefined),-4,-14%,-3,-1.8,-1.0,-14,2.6,-6,-24,2.1
CSc1ccc(/C=C(\C#N)C(=O)NC2CCCCC2)cc1,10,nt,-4,2.0,-0.6,-2,nt,nt,nt,nt
CN=C(C)/C(C(=O)OC)=C(/O)c1ccccc1F,-4,-12%,-5,-4.4,-0.1,-8,2.0,7,11,0.8
O=C(CNc1cc(S(=O)(=O)N2CCOCC2)ccc1N1CCOCC1)Nc1cccc(C(F)(F)F)c1,-12,3%,nt,nt,0.8,nt,0.0,8,20,1.9
O=c1c2ccc(Cl)cc2[nH]c(=S)n1CCC1=CCCCC1,-1,1%,16,-4.5,0.8,-27,nt,nt,nt,nt
COc1cccc(CNC(=O)c2cc(C)nc3ccccc23)c1,-1,?,3,0.0,0.5,-8,-4.2,3,10,0.4
CCN1CCN(C(=O)c2nn(-c3ccc(C)cc3)c(=O)c3c2c2ccccc2n3C)CC1,-5,-7%,19,-7.1,0.9,4,nt,nt,nt,nt
COc1ccccc1NC(=S)N1CCN(c2ccccn2)CC1,2,-13%,-7,0.9,0.9,-8,nt,nt,nt,nt
O=c1c2cc(NC(=S)N3CCCCCC3)ccc2nc2n1CCCCC2,-6,1%,-2,-0.8,-0.4,?,0.5,-18,-14,0.4
COc1ccc(OC)c(NC(=O)c2sc3nc(Cc4ccccc4)cc(C(F)(F)F)c3c2N)c1,-2,-8%,0,0.6,-0.3,-6,nt,nt,nt,nt
Cc1ccc(C(=O)NC(=S)NCCCN2CCOCC2)cc1,8,nt,11,nt,-1.6,-3,-3.8,16,6,-1.7
O=C1CCC/C(=N\NC(=O)c2ccc(NS(=O)(=O)c3ccc(Br)cc3)cc2)C1,-5,25%,8,5.9,-0.4,-1,nt,nt,nt,nt
COc1ccc(C(=O)Oc2cc(/C=N/NC(N)=S)ccc2OC)cc1,nt,0%,4,1.6,-0.4,-38,nt,nt,nt,nt
Cc1nc2cc(NCc3ccc(Cl)cc3)ccc2n1C,nt,?,17,?,-3.0,-10,3.7,1,-9,7.1
CCOC(=O)n1c(SCC(N)=O)nc2ccccc21,-5,-4%,-8,-1.5,0.7,2,nt,nt,nt,nt
Cc1cc(Cl)ccc1NC(=O)C1CCCN1C(=O)c1cccs1 (centres undefined),-1,nt,-13,-2.8,0.2,-20,-0.2,7,1,1.4

# New compounds follow
SMILES,Beta cell apopt,Vif TR-FRET,T cruzi inh,RanGTP-Impb inh,A1 inh,Calb FLC,MLL AF4-AF9 inh,Ecoli rRNA inh,Ecoli rRNA inh OD600,Ecoli rRNA inh RFP
CC(C)c1ccc(/C=C2\SC(=S)N(CCC(=O)NCCCn3ccnc3)C2=O)cc1,nt,nt,11,6.1,0.9,-4,-2.4,-6,-2,2.8
COc1ccc2nc(/N=C/c3cccc(OC)c3O)sc2c1,-2,-1%,-4,5.6,-3.0,-4,0.9,6,4,-2.4
Cn1ccnc1SCC(=O)Nc1ccc(Br)cc1C(F)(F)F,-1,nt,3,-0.9,-0.5,-11,nt,nt,nt,nt
CNc1ccc(Br)cc(C(=O)/C=C/c2ccc(OC)cc2)c1=O,-2,3.5µM*,-10,-2.8,0.6,0,nt,nt,nt,nt
CSc1ncc(C(=O)Nc2cccc(Cl)c2)c(C)n1,-1,2%,-8,5.6,-0.5,2,-1.6,-4,-9,-0.7
COC(=O)c1cc2ccsc2n1Cc1nc(-c2ccc(OC)cc2)oc1C,nt,1%,13,-0.4,0.2,-3,2.6,3,6,-5.8
COc1ccccc1NC(=O)NCc1nc(-c2ccc(C(F)(F)F)cc2)no1,-1,nt,17,0.5,1.0,1,nt,2,4,0.0
C=CCn1c(=O)c2ccc(C(=O)NCc3ccccc3)cc2n(Cc2ccc(Cl)cc2)c1=O,10,2%,-14,-0.3,-0.2,6,-4.5,nt,nt,nt
CC(=O)NCCN1C(=O)S/C(=C\c2cccs2)C1=O,-1,7%,1,-1.1,-0.1,0,-0.1,6,-1,3.5
CCN(CC)C(=O)CN(c1cc(Cl)ccc1OC)S(C)(=O)=O,nt,25%,3,-2.4,-0.6,5,nt,nt,nt,nt
N/C(=N\OC(=O)c1ccc(Cl)cc1Cl)c1ccccn1,110*,nt,-1,4.7,-6.1,26,nt,nt,nt,nt
CN(C)c1ccc(C(=O)Nc2nnc(C3=COCCO3)o2)cc1,-8,-5%,-6,-3.5,-2.2,1,0.1,8,6,-5.6
OCCC1CN(Cc2cc3ccccc3o2)CCN1Cc1ccc(F)cc1 (centres undefined),nt,nt,17,-5.9,-0.3,1,2.5,-4,-2,-4.4
Cc1cccc(N2CCN(Cc3nc(CC4CC4)no3)CC2)n1,0,nt,-24,7.2,1.0,-37,-2.0,4,1,1.7
CCOc1ccccc1CN1CCN(CC2=Cc3cc(OC)ccc3OC2)CC1CCO (centres undefined),-4,10%,55*,1.8,0.8,-5,-3.2,-7,-2,13
O=C(COC(=O)c1ccc2ccccc2n1)c1ccc(F)cc1,-7,0%,-21,0.8,-0.5,0,-3.9,3,9,-1.2
CCc1ccccc1NC(=O)CCc1nc(-c2cccs2)no1,13,nt,0,4.7,1.2,-26,0.0,-6,-9,0.7
Cc1ccnn1CC(=O)N/N=C/c1ccco1,0,24%,-11,4.5,-0.4,9,nt,nt,nt,nt
CC(C)Oc1ccc(CSC(=N)N)cc1,3,16%,-23,?,0.7,-7,nt,nt,nt,nt
O=C(Cn1ncc(Cl)c(Cl)c1=O)N1CCc2ccccc21,nt,-45%,82*,?,nt,-5,-0.2,-4,-1,0.1
Cc1nnc(NC(=O)c2ccc(Br)cc2)s1,1,-3%,-14,6.8,-1.3,4,nt,nt,nt,nt
Cc1ccnc(NC(=O)c2ccc(S(=O)(=O)NCc3ccco3)cc2)c1,-10,-3%,-4,-0.8,0.5,-1,-9.3,-1,-8,-2.7
Cc1ccsc1/C=N/NC(=O)CC(=O)NCC(C)C,5,4%,-12,?,0.0,-3,0.3,22,6,-0.9
CCOc1ccc(CC(=O)NC2CCN(Cc3ccccc3)CC2)cc1,nt,nt,29,?,0.2,-8,-2.1,34,14,2.4
CC(=O)c1ccc(N(CC(=O)NC2CCCC2)C(=O)CCC(=O)Nc2cc(C)on2)cc1,-12,nt,2,3.3,0.0,-17,2.4,2,-2,-0.3

# Additional compounds
SMILES,Beta cell apopt,Vif TR-FRET,T cruzi inh,RanGTP-Impb inh,A1 inh,Calb FLC,MLL AF4-AF9 inh,Ecoli rRNA inh,Ecoli rRNA inh OD600,Ecoli rRNA inh RFP
CCOC(=O)c1ccccc1N/C=C/C(=O)c1cccs1,5,nt,-5,1.9,0.9,-13,-9.9,6,3,-0.6
C[C@@H](CN=[N+]=[N-])CN1CC[C@H](NC(=O)OCc2ccccc2)CCC1=O,-2,nt,-5,-2.3,-0.4,-1,1.5,23,10,-4.2
CC(C)(C)c1ccccc1NC(=S)NC1CCCC1,9,nt,-10,-1.5,0.3,5,2.9,5,5,-1.0
COc1ccc(CNC(=O)c2cccc(NC(=O)CC3SC(N4CCCCC4)=NC3=O)c2)cc1 (centres undefined),1,-3%,nt,nt,0.2,nt,-0.8,-9,-5,-1.8
COC(=O)c1ccc(C2c3[nH]c4ccccc4c3C[C@H]3C(=O)N(C4CCN(Cc5ccccc5)CC4)CC(=O)N23)cc1 (some centres undefined),10,nt,42,-1.9,-0.8,16,7.1,1,11,20
CC1=NN(c2ccc(S(=O)(=O)O)cc2Cl)C(=O)C1,-6,?,-17,8.5,0.2,2,-1.9,14,13,-1.2
CCOC(=O)C1CCN(C(=S)Nc2ccc(Cl)cc2C)CC1,-1,1%,-2,4.5,-0.6,-14,-2.7,4,5,1.0
CCCOc1ccc2[nH]cc(C(=O)O)c(=O)c2c1,-1,74%,-3,-0.4,0.4,0,nt,nt,nt,nt
N#CNc1nc(O)cc(=O)[nH]1,4,16%,-5,2.5,0.3,-1,nt,nt,nt,nt
Cc1ccc(-n2c(SCc3ccc(C(=O)O)cc3)nnc2-c2ccncc2)cc1,-3,nt,0,-2.6,-1.8,-1,3.4,4,5,1.5
Cc1cc(C)c2c(=O)[nH]c(SCC(=O)Nc3ccc(N(C)C)cc3)nc2n1,-3,12%,-3,2.2,-0.3,8,nt,nt,nt,nt
CCc1ccc(C2=C/C(=C/c3cccnc3)C(=O)O2)cc1,-6,16%,-20,6.1,0.4,5,-14,-4,-1,-5.7
O=C(Nc1cccc(S(=O)(=O)NCc2ccco2)c1)c1cc(-c2ccccc2)nc2ccccc12,-2,18%,21,4.6,0.5,-11,-1.3,5,8,-0.6
Cc1ccc(-n2c(-c3cnccn3)n[nH]c2=S)cc1,-2,?,7,-1.7,-0.1,28,-7.5,14,16,1.3
CCCCCNC(=O)C1CCC(Cn2c(=S)[nH]c3ccccc3c2=O)CC1 (centres undefined),nt,2%,41,3.8,?,19,-3.1,3,11,-0.7
CCCC(=O)Nc1ccc(Cl)c(NC(=S)NC(=O)c2cc3ccccc3o2)c1,0,nt,-12,-1.9,-1.1,-10,-9.7,-3,6,9.0
